H5N1 antiviral – antiviral screen in MDCK cells, H5N1 avian flu. AID 740. cytopathic effect, luminescence, 72 h; stronger effect = higher value; no value below 0 was filed and about half of the inactive calls have no number; reference of the scale not given here. actives 0.07% (n = 96,000). inhibition, % at 50 µM; in the data active = inhibition above about 25%
* = called active by the depositor. An excerpt, so the mix of outcomes need not match the whole.

`Cc1ccc(C)c(NC(=O)c2ccc3ccccc3n2)c1` gave H5N1 antiviral inactive.
`COc1ccc(OC)c(C2N(c3cc(C)on3)C(=O)C3CCCN32)c1` (stereo unspecified) gave H5N1 antiviral 0.1.
For COc1ccc(N2CCN(Cc3cc(=O)oc4cc(C)c(Cl)cc34)CC2)cc1 the results were H5N1 antiviral 0.9.
`COc1ccc(C(=O)Oc2ccc(/C=N/O)cc2)cc1` gave H5N1 antiviral inactive.
`Fc1cccc(Cn2ccc(-c3ccc4c(c3)OCO4)n2)c1` gave H5N1 antiviral 0.4.
Screening Cc1cc(NC(=O)C(C)C)ncc1NC(=O)c1cccc(F)c1 returned H5N1 antiviral 0.1.
`COC(=O)N/N=C\C=C\c1ccc2c(c1)OCO2` gave H5N1 antiviral 0.0.
Screening COc1ccccc1-c1nn2c(C3COc4ccccc4O3)nnc2s1 (stereo unspecified) returned H5N1 antiviral inactive.
O=c1c2c3c(sc2nc2sc(CN4CCOCC4)cn12)CCCC3 was read as H5N1 antiviral inactive.
CCOC(=O)NC(c1ccccc1)C1CCCCC1=O (stereo unspecified) was read as H5N1 antiviral inactive.
Cc1nc2ncnn2c(C)c1CCC(=O)NCc1ccco1 was read as H5N1 antiviral 2.5.
For CCN(CC)c1nc(C)nc2c1cnn2CCc1ccccc1 the results were H5N1 antiviral 0.5.
For COc1ccc2[nH]cc(C(O)CN3CCC(C(N)=O)CC3)c2c1 (stereo unspecified) the results were H5N1 antiviral inactive.
Screening C/C(=N\NC(=O)c1cccc(Cl)c1)c1cccc(NC(=O)c2ccco2)c1 returned H5N1 antiviral inactive.
For CCOC(=O)c1oc2c(CN3CCN(C)CC3)c(O)ccc2c(=O)c1-c1ccccc1OC the results were H5N1 antiviral 0.7.
`COc1ccc(C(=O)COC(=O)CN2C(=O)C3C4C=CC(C4)C3C2=O)cc1` (stereo unspecified) gave H5N1 antiviral 0.7.
Screening Cc1ccc(-c2nnc(-c3ccc(NC(=O)c4cccs4)cc3)o2)cc1 returned H5N1 antiviral inactive.
`CCc1nc(C)cn1S(=O)(=O)c1cc(C)c(OC)c(C)c1C` gave H5N1 antiviral inactive.
Screening O=c1c2ccccc2c(-c2ccccc2)nn1-c1ccc(Cl)c(Cl)c1 returned H5N1 antiviral 0.7.
Screening Cc1nc2ccccc2n1CC(=O)NCCN1CCCC1 returned H5N1 antiviral inactive.
CCSc1nc(C(F)(F)F)cc(=O)n1-c1ccccc1 was read as H5N1 antiviral inactive.
Screening O=C(Nc1nc2ccccc2[nH]1)c1ccccc1F returned H5N1 antiviral inactive.
`Cc1ccc(-c2csc3nnc(SCC(=O)NCc4ccco4)n23)cc1` gave H5N1 antiviral 5.1.
For COC(=O)c1sccc1-n1cccc1C(=O)NCc1ccccc1 the results were H5N1 antiviral 0.9.
CCc1ccc(Cn2nnc(C(=O)Nc3cccc(C)c3)c2N)cc1 was read as H5N1 antiviral inactive.
Screening NS(=O)(=O)c1ccc(CCNC(=O)Nc2ccc(Cl)c(Cl)c2)cc1 returned H5N1 antiviral inactive.
Screening CCOC(=O)C1=C(C)OC(N)=C(C#N)C1c1cc(F)ccc1F (stereo unspecified) returned H5N1 antiviral 0.1.
Screening COc1ccc(CN2CCN(c3ccccn3)CC2)cc1OCc1ccccc1 returned H5N1 antiviral inactive.
`Cn1cc([N+](=O)[O-])c(C(=O)Nc2ccc(Br)cn2)n1` gave H5N1 antiviral 0.4.
`CC(C)(C)n1nnnc1C(c1cccs1)N1CCN(Cc2ccccc2)CC1` (stereo unspecified) gave H5N1 antiviral 0.2.
For COc1ccc(CN2CCN(S(=O)(=O)c3ccc(C)cc3)CC2)cc1Br the results were H5N1 antiviral inactive.
`O=C(Nc1nnc(-c2ccc(Cl)cc2)o1)NC1CCCCC1` gave H5N1 antiviral inactive.
CC[N+]1(CC)CC2=Cc3c(ccc4ccccc34)CC2C1 (stereo unspecified) was read as H5N1 antiviral 0.4.
`Nc1nonc1-c1noc(-c2ccc(Br)o2)n1` gave H5N1 antiviral inactive.
`O=C(c1ccc2c(c1)OCCO2)N1CCCCC1` gave H5N1 antiviral inactive.
`Cc1ccc(C(=O)Oc2ccc(C(=O)COC(=O)c3cnccn3)cc2)cc1` gave H5N1 antiviral inactive.

Next part, overlapping the part above by six compounds.
For COc1ccc(CN2CCN(S(=O)(=O)c3ccc(C)cc3)CC2)cc1Br the results were H5N1 antiviral inactive.
`O=C(Nc1nnc(-c2ccc(Cl)cc2)o1)NC1CCCCC1` gave H5N1 antiviral inactive.
CC[N+]1(CC)CC2=Cc3c(ccc4ccccc34)CC2C1 (stereo unspecified) was read as H5N1 antiviral 0.4.
`Nc1nonc1-c1noc(-c2ccc(Br)o2)n1` gave H5N1 antiviral inactive.
`O=C(c1ccc2c(c1)OCCO2)N1CCCCC1` gave H5N1 antiviral inactive.
`Cc1ccc(C(=O)Oc2ccc(C(=O)COC(=O)c3cnccn3)cc2)cc1` gave H5N1 antiviral inactive.
Screening Cc1cc(C(F)(F)F)nc(SCC(=O)NC2=NC(=O)C(C)S2)n1 (stereo unspecified) returned H5N1 antiviral inactive.
COc1cc(S(=O)(=O)N2CCN(C)CC2)c(OC)cc1Br was read as H5N1 antiviral 0.4.
Screening CCOc1ccccc1NC(=O)C1CCN(S(=O)(=O)c2cccc3cccnc23)CC1 returned H5N1 antiviral 1.0.
`Cc1noc(C)c1C(=O)Nc1sc2c(c1C(N)=O)CCC2` gave H5N1 antiviral inactive.
For Cc1cnc(NC(=O)Cc2c[nH]c3ccccc23)s1 the results were H5N1 antiviral 2.0.
For Cc1c(C(=O)OCCN2CCCCC2)oc2ccccc12 the results were H5N1 antiviral 4.3.
Cc1nn(-c2ccccc2)c(Cl)c1C1C(C#N)=C(N)Oc2n[nH]c(C)c21 (stereo unspecified) was read as H5N1 antiviral 3.5.
`COC(=O)CNC(=O)C(Cc1c[nH]c2ccccc12)NC(=O)OC(C)(C)C` (stereo unspecified) gave H5N1 antiviral 0.3.
For COc1cc(C2Nc3cccc4cccc(c34)N2)cc(OC)c1O the results were H5N1 antiviral inactive.
For COc1ccc(N2CCN(C(c3cc4ccc(C)cc4[nH]c3=O)c3nnnn3C3CCCC3)CC2)cc1 (stereo unspecified) the results were H5N1 antiviral 0.2.
Screening O=Cc1nc(-c2ccccc2Cl)n2ccccc12 returned H5N1 antiviral 1.4.
O=C(CSc1nnc(-c2ccc(O)cc2)n1Cc1ccco1)c1cccs1 was read as H5N1 antiviral 1.7.

In the list so far, these contain fluorine.
`Fc1cccc(Cn2ccc(-c3ccc4c(c3)OCO4)n2)c1` gave H5N1 antiviral 0.4.
Screening Cc1cc(NC(=O)C(C)C)ncc1NC(=O)c1cccc(F)c1 returned H5N1 antiviral 0.1.
CCSc1nc(C(F)(F)F)cc(=O)n1-c1ccccc1 was read as H5N1 antiviral inactive.
Screening O=C(Nc1nc2ccccc2[nH]1)c1ccccc1F returned H5N1 antiviral inactive.
Screening CCOC(=O)C1=C(C)OC(N)=C(C#N)C1c1cc(F)ccc1F (stereo unspecified) returned H5N1 antiviral 0.1.
Screening Cc1cc(C(F)(F)F)nc(SCC(=O)NC2=NC(=O)C(C)S2)n1 (stereo unspecified) returned H5N1 antiviral inactive.

Next section.
Screening C=CCSc1nnc2c(n1)OC(c1ccccn1)N(C(C)=O)c1ccccc1-2 (stereo unspecified) returned H5N1 antiviral inactive.
CCn1c(SCC(=O)Nc2ccc3c(c2)OCCO3)nnc1-c1ccco1 was read as H5N1 antiviral inactive.
Screening Cc1ccc(SCCCn2cncn2)cc1 returned H5N1 antiviral inactive.
Screening Cc1ccc(CSc2nc3c(cc2C#N)CCC3)cc1 returned H5N1 antiviral inactive.
Screening C=CCNC(=O)COC(=O)COc1ccc(Cl)cc1C returned H5N1 antiviral 0.9.
For N#Cc1ccc(NC(=O)CCc2ccc(S(=O)(=O)N3CCOCC3)cc2)cc1 the results were H5N1 antiviral 1.9.
`CCOc1ccc(C(=O)c2cccs2)cc1` gave H5N1 antiviral 0.1.
Screening COc1ccc(CCNC(=O)c2ccc(=O)[nH]n2)cc1OC returned H5N1 antiviral inactive.
Screening CCC(CC)C(=O)Nc1cc(C(=O)NCCc2ccccc2)ccc1Cl returned H5N1 antiviral inactive.
Screening CCOc1ccc(NCc2nnc(SCC(=O)Nc3cc(C)on3)n2-c2ccc(OC)cc2)cc1 returned H5N1 antiviral inactive.
Cc1ccc2nc(-c3ccccc3)cn2c1 was read as H5N1 antiviral inactive.
Screening Cc1ccccc1N(CC(=O)N/N=C/c1ccc(F)cc1)C(=O)c1ccccc1 returned H5N1 antiviral inactive.
O=C(CSc1nnc2c3c4c(sc3ncn12)CCCC4)NCc1ccco1 was read as H5N1 antiviral 2.9.
`O=S(=O)(c1cccc(NC(=S)Nc2ccc(Br)cc2Cl)c1)N1CCOCC1` gave H5N1 antiviral inactive.
Screening CCCCN(CC)C(=O)c1n[nH]c(=O)c2ccccc12 returned H5N1 antiviral 0.6.
Cc1c(Cc2ccc3c(c2)OCO3)sc(NC(=O)C(C)(C)C)c1C#N was read as H5N1 antiviral inactive.
CCCNC(=O)CS(=O)(=O)Cc1nc(-c2cccc(OC)c2)oc1C was read as H5N1 antiviral 1.0.
Screening O=C(Nc1cccnc1)Nc1ccccc1Cl returned H5N1 antiviral 0.0.
`O=C1C2CCCN2C(c2ccc(F)cc2)N1c1nccs1` (stereo unspecified) gave H5N1 antiviral inactive.
For CCOC(=O)c1sc(N(Cc2ccccc2)C(=O)CSc2ncn[nH]2)nc1C the results were H5N1 antiviral 2.3.
Screening CC(=O)c1ccc(NS(=O)(=O)Cc2ccc(Cl)cc2)cc1 returned H5N1 antiviral 0.0.
For Cc1cc(NC(=O)c2cc(-c3ccc(C)s3)nc3ccccc23)no1 the results were H5N1 antiviral inactive.
Screening COc1cc(C2CC(=O)c3c([nH]c(C(=O)OCCOC(C)C)c3C)C2)cc(OC)c1OC (stereo unspecified) returned H5N1 antiviral inactive.
Screening Cc1ccc(OCC(=O)Nn2c(C)nc3ccccc3c2=O)c(C(C)C)c1 returned H5N1 antiviral inactive.
COCCn1c(SCc2csc(-c3ccccc3)n2)nc2ccccc21 was read as H5N1 antiviral inactive.
`O=C(Nc1nc(-c2ccccn2)cs1)c1ccc(Cl)s1` gave H5N1 antiviral inactive.
Screening CCNC(=S)NN(c1ccccc1)c1ccccc1 returned H5N1 antiviral inactive.
CN1CCN(C(=O)Nc2cccc3ccccc23)CC1 was read as H5N1 antiviral inactive.
Screening CCN(CC)S(=O)(=O)c1cccc(C(=O)NC(Cc2c[nH]c3ccccc23)c2nnc3n2CCCCC3)c1 (stereo unspecified) returned H5N1 antiviral inactive.
`O=C(O)CCC(=O)NCc1ccc(F)cc1` gave H5N1 antiviral inactive.
For COc1ccc(Cc2nc(-c3ccc(Br)cc3)no2)cc1 the results were H5N1 antiviral inactive.
Screening Cc1cc(C)cc(NC(=O)c2cc(S(=O)(=O)NCc3ccco3)ccc2F)c1 returned H5N1 antiviral 24.9.
Cc1oc(-c2cccs2)nc1CSCC(=O)NC1CC1 was read as H5N1 antiviral inactive.
`Cc1ccc2[nH]c(=O)c(CN(CCc3ccccc3)C(=O)N3CCOCC3)cc2c1` gave H5N1 antiviral inactive.
For CCOC(=O)CNC(=O)C1c2ccccc2C(=O)N(c2ccc(OC)cc2)C1c1ccc(OC)cc1 (stereo unspecified) the results were H5N1 antiviral 0.6.
`Cc1cc2c3c(c1)C1(SCC(=O)N1c1ccc(F)cc1)C(=O)N3C(C)(C)CC2C` (stereo unspecified) gave H5N1 antiviral 0.3.
For COc1ccc(OC)c(-n2cnc3cc(C(=O)O)ccc32)c1 the results were H5N1 antiviral 0.9.
For Cc1ccccc1Cc1c(C)nc2c(C(=O)NCc3ccco3)cnn2c1C the results were H5N1 antiviral 2.8.
Clc1ccc(Cl)c(-c2nn3c(COc4ccccc4)nnc3s2)c1 was read as H5N1 antiviral 0.2.
`CC(=O)Nc1ccc(NS(=O)(=O)c2ccc(Cl)c(C(=O)O)c2)cc1` gave H5N1 antiviral 0.8.
For Clc1cccc(Oc2cnns2)c1Cl the results were H5N1 antiviral inactive.
Screening O=C(NC1CCCCCC1)C1CCN(S(=O)(=O)c2ccccc2)CC1 returned H5N1 antiviral 0.1.
`COC(=O)C1=CN(CC2CCCO2)C=C(C(=O)OC)C1c1ccsc1` (stereo unspecified) gave H5N1 antiviral inactive.
Screening C=CCn1c(=N)n(CC(O)COc2ccc(OC)cc2)c2ccccc21 (stereo unspecified) returned H5N1 antiviral inactive.
For CCOc1ccccc1C(=O)N1CCOCC1 the results were H5N1 antiviral 0.5.
CCOCCCn1c(SCC(=O)NC(C)(C)C)nc2ccccc2c1=O was read as H5N1 antiviral 2.3.
`CCC(C)Sc1nnc(Cc2cc(=O)[nH]c(=O)[nH]2)n1-c1ccc(F)cc1` (stereo unspecified) gave H5N1 antiviral 0.3.
Screening CC(C)Cn1c(N)c(C(=O)COC(=O)c2cc(-c3ccco3)nc3ccccc23)c(=O)n(C)c1=O returned H5N1 antiviral inactive.
`Cc1ccccc1N(CC(=O)N/N=C/c1ccccc1Cl)C(=O)c1ccccc1` gave H5N1 antiviral inactive.
Screening CCC(Sc1nc2n[nH]c(C)c2c(=N)n1-c1ccc(C)c(Cl)c1)C(=O)N1CCOCC1 (stereo unspecified) returned H5N1 antiviral 0.8.
For CCOC(=O)CSc1nc2c(sc(=S)n2Cc2ccco2)c(=O)n1-c1ccc(F)cc1 the results were H5N1 antiviral 0.8.
O=C(C1CCCO1)N1CCN(Cc2nc3ccccc3c(=O)[nH]2)CC1 (stereo unspecified) was read as H5N1 antiviral 0.5.
For N#Cc1c(NC(=O)CN2CCN(C(=O)c3ccco3)CC2)sc2c1CCCCC2 the results were H5N1 antiviral 0.7.
For COc1ccc(CS(=O)(=O)/C(Cl)=C(/Cl)C(=O)Nc2ccc(OC)nc2)cc1 the results were H5N1 antiviral inactive.
`CCOC(=O)c1ccc(NC2OC(=O)c3ccccc32)cc1` (stereo unspecified) gave H5N1 antiviral inactive.

3 structures out of the list, ordered by formula weight, rising.
O=C(C1CCCO1)N1CCN(Cc2nc3ccccc3c(=O)[nH]2)CC1 (stereo unspecified) was read as H5N1 antiviral 0.5.
`Cc1ccccc1N(CC(=O)N/N=C/c1ccccc1Cl)C(=O)c1ccccc1` gave H5N1 antiviral inactive.
For CCOC(=O)CSc1nc2c(sc(=S)n2Cc2ccco2)c(=O)n1-c1ccc(F)cc1 the results were H5N1 antiviral 0.8.

Bioassay records as filed in PubChem.
